VDR inhibitor – Inhibitors of the vitamin D receptor (VDR): qHTS | Vitamin D3 receptor (Homo sapiens), P11473 | VDR-SRC2-3 peptide fluorescence polarization, 2 h | Potency, µM, for the others: max response, negative = inhibition, usual class: inhibitors | 0.93% of 400,000 active; active means well fitted inhibition curve with a large enough effect; inconclusive means small, poorly fitted or top-dose-only effect, or another doubt; inactive means no such curve, though single readings can be large or run the other way; further: series mostly up to about 120 µM
Target sequence (P11473 whole entry, looked up): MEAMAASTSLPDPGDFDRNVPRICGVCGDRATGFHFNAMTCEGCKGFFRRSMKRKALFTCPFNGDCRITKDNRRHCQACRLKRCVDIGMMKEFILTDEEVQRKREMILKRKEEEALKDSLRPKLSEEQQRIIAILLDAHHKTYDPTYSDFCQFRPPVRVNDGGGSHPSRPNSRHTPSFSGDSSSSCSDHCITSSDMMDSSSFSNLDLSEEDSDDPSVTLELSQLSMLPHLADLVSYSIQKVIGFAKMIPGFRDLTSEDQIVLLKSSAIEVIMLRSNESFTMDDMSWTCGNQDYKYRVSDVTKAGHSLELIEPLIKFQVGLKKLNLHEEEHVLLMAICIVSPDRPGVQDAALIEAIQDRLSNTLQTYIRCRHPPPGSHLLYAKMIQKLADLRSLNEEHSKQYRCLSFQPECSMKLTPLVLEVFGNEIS
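Fluorescence polarization assay of small-molecule disruption of VDR binding to coregulator peptide SRC2-3. Compounds and controls pin-transferred, then read after 2 h incubation at ambient room temperature.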
* = called active by the depositor; ? = inconclusive; & = joins results of further samples; [ ] = remark or other dose. On the % scale 0 is the no-effect control and ±100 the full control effect; potency means the concentration at half of the fitted maximal effect.

SMILES	VDR inhibitor
CS(=O)(=O)c1nc(S(=O)(=O)c2ccc(Cl)cc2)c(N2CCC(C(N)=O)CC2)s1	-1.9%
CC1(C)CC2CC(C)(CN2C(=O)COc2cccc3ccccc23)C1 (stereo not drawn)	-1.5%
Cn1cccc1C(C(=O)NC1CCCCC1)N(C(=O)Cc1cccs1)c1ccc2c(c1)OCO2 (stereo not drawn)	-0.2%
CCNc1nc(SCCOc2ccc(Cl)cc2Cl)nc(N(C)C)n1	-1.1%
CCN(Cc1ccccc1)C(=O)Cn1c(=O)n(-c2cccc(C)c2)c(=O)c2c1c1cc(C)ccc1n2C	9.5%
COC(=O)C1CCN(C(=O)/C(C)=C\c2ccccc2)CC1	13.9%
Clc1ccc(OCCn2c(-c3ccco3)nc3ccccc32)cc1	-7.7%
OCc1ccnc(Cl)c1	16.4%
Cc1nc(-c2ccc(C)c(S(=O)(=O)N3CCC(C(=O)NCc4ccc(Cl)cc4)CC3)c2)no1	11.8%
O=C(CCSc1ccccc1)NC1CCCCCC1	-9.2%
Cc1cccc(N2CCN(C(=O)Nc3ccc(F)cc3)CC2C)c1 (stereo not drawn)	11.3%
COc1cc(NC(=O)NC(C)c2c(-n3cccc3)sc3c2CCN(C)C3)cc(OC)c1 (stereo not drawn)	14.8%
O=C(NCc1ccccc1)c1cc[n+]([O-])cc1	3.1%
COc1cccc(CN2CCNC(=O)C2CC(=O)NC2CCCCCCC2)c1 (stereo not drawn)	20.7%
OCC[C@H]1C[C@H](O)[C@@H](O)[C@]2(CCc3ccccc3O2)O1	-32.6%
COCCCn1c(=O)c2ccccc2n(CC(=O)NC2CCCCC2)c1=O	6.5%
O=C(CSc1ncccn1)NCc1cccs1	-16.6%
COc1ccc(Nc2ncc3c(n2)CCN(Cc2sccc2C)C3)c(OC)c1	-9.3%
Cc1cc2c(cc1S(=O)(=O)Nc1cccc(C(F)(F)F)c1)OCCN2C	10.9%
O=C(COc1ccc(Cl)cc1[N+](=O)[O-])NC1CCCCC1	6.7%

Ordered by the number under VDR inhibitor (ascending): four from the list above
SMILES	VDR inhibitor
COc1ccc(Nc2ncc3c(n2)CCN(Cc2sccc2C)C3)c(OC)c1	-9.3%
COCCCn1c(=O)c2ccccc2n(CC(=O)NC2CCCCC2)c1=O	6.5%
O=C(COc1ccc(Cl)cc1[N+](=O)[O-])NC1CCCCC1	6.7%
COc1cc(NC(=O)NC(C)c2c(-n3cccc3)sc3c2CCN(C)C3)cc(OC)c1 (stereo not drawn)	14.8%

Carrying on.
SMILES	VDR inhibitor
COc1ccc(C2Nc3ccccc3C(=O)N2NS(C)(=O)=O)c(OC)c1 (stereo not drawn)	?
O=C1Nc2ccccc2S/C1=C/Nc1cccc(Cl)c1	5.3%
O=C1C2=C(Nc3ccccc3SC2c2ccco2)c2ccccc21 (stereo not drawn)	2.8%
COc1ccc(OC)c(NC(=O)CCNC(=O)Cn2ccc3ccccc3c2=O)c1	-4.2%
COc1ccc(C(=O)CN2C(=O)NC3(CCCCC3)C2=O)cc1OC	15.9%
O=C(Nc1nccs1)c1cccc(N2C(=O)c3cccc4c([N+](=O)[O-])ccc(c34)C2=O)c1	5.2%
Nc1ccccc1C(=O)NNc1c2ccccc2nc2ccccc12	-11.9%
CC12CCC(=O)N1C(C(=O)N1CCN(c3ccc(C(F)(F)F)cc3[N+](=O)[O-])CC1)CS2 (stereo not drawn)	-14.0%
COC(=O)[C@]1(Cc2ccccc2)N[C@H](CN(C)C(C)=O)[C@@H]2C(=O)N(C)C(=O)[C@@H]21	11.7%
Nc1cc2c(cc1[N+](=O)[O-])OCCOCCOCCO2	-4.5%
COc1ccc(-n2c(SCC(=O)NCc3ccc(Cl)cc3)nc3ccsc3c2=O)cc1	5.0%
COc1ccc(N2C(=O)CSC23C(=O)N(C)c2ccccc23)cc1Cl (stereo not drawn)	3.2%
CN(CC(=O)NCCCN1CCOCC1)S(=O)(=O)c1cc(Cl)ccc1Cl	-5.0%
CC(C)(C)CC(=O)NC(=S)N1CCCCCC1	-2.3%
CC(C)(O)C#Cc1ccc(C(=O)NCc2cccs2)s1	-2.9%
CCC(c1c(C)n(C)n(-c2ccccc2)c1=O)c1c(C)n(C)n(-c2ccccc2)c1=O	-4.5%
O=C(c1cc2nc(-c3ccco3)cc(C(F)(F)F)n2n1)N1CCCCCC1	-5.4%
Cc1cc(C(F)(F)F)nn1CC(=O)NNC(=S)Nc1cccc(Cl)c1	-1.7%
CCc1ccc(-c2nn(CC(=O)NC3CCCC3)c3c2cnc2ccc(F)cc23)cc1	12.5%
Nc1nc(SCc2ccccc2)[nH]c(=O)c1-c1ccccc1	-5.6%
COc1ccc(C=NNC(=S)NN=Cc2ccc(OC)c(OC)c2)cc1OC	?
CCN1C(=O)c2ccccc2Sc2ccc(NC(=O)COc3ccc(Cl)cc3)cc21	-0.4%
CCCC(=O)Oc1c(Sc2ccc(C)cc2)c(C)nn1-c1ccccc1	17.8µM*
Cc1[nH]nc2c1C(c1cccnc1)N(c1ccc(Br)cc1)C2=O (stereo not drawn)	-4.9%
COc1ccccc1OCC(O)Cn1c(=N)n(Cc2ccccc2)c2ccccc21 (stereo not drawn)	-2.9%
CC1=C(C(=O)Nc2ccc(C)cc2C)C(c2ccc(Cl)cc2)n2nc(C(=O)OC(C)C)nc2N1 (stereo not drawn)	-18.6%&-9.0%
CCCN(CC(=O)Nc1ccccc1OC)C(=O)CCNC(=O)c1ccccc1OC	-3.6%
CNC(=S)N1CCN(c2nc(-c3cccc(OC)c3)cs2)CC1	-14.7%
C=CCNC(=O)c1ccccc1NC(=O)C1CCN(S(=O)(=O)c2ccc(SC)cc2)CC1	-7.8%
O=c1cc(N2CCN(c3ccccc3F)CC2)[nH]c(=O)n1-c1ccc(Br)cc1	-9.0%
CCc1sc(C(=O)N2CCCN(C)CC2)cc1Br	2.3%
COc1ccc(NC(=O)Nc2cc(-c3cn4cccnc4n3)ccc2C)cc1	7.0%
O=C(Nc1c2c(nn1-c1ccccc1)CSC2)c1ccc(N2C(=O)CCC2=O)cc1	-21.3%
CCOC(=O)c1nc(C)nc(Sc2n[nH]c(-c3cc(C(F)(F)F)cc(C(F)(F)F)c3)n2)c1C	-4.7%
CCOC(=O)CNC(=O)Nc1cc(C(=O)NCc2ccccc2OC)ccc1N1CCCC1	20.3%
CCOc1cccc(CNCc2ccc(C(=O)O)cc2)c1	-9.3%
COc1cccc(-n2nnnc2S(C)(=O)=O)c1	44.7µM*
O=C(Cc1cccc(NC(=O)C2CCCN(C(=O)C3CCCCC3)C2)c1)Nc1cccc(C(=O)N2CCCC2)c1 (stereo not drawn)	2.6%
Cc1ccc(C)c(-n2cc(CNCCc3cnccn3)c(-c3ccccc3)n2)c1	-23.8%
Cc1nc2ccc(NC(=O)Cc3ccsc3)cc2s1	-3.4%
CC(C)(C)c1ccc(-c2nc(C#N)c(NCCCn3ccnc3)o2)cc1	-11.3%
Cc1c(NS(=O)(=O)c2ccccc2)cc(C(C)C)c(O)c1S(=O)(=O)c1ccc(Cl)cc1	-1.6%
CCOC(=O)C1(CCOC)CCN(C(=O)Cc2ccsc2)CC1	2.3%
Cc1ccc(S(=O)(=O)N(CC(=O)c2ccccc2)C(=O)N2CCN(C)CC2)cc1	-25.4%
CC1CCN(S(=O)(=O)c2ccc3[nH]c(=O)c(=O)[nH]c3c2)CC1	7.4%
COc1cc(/C=N/NC(N)=O)ccc1OCC(=O)N1C(C)CCCC1C (stereo not drawn)	-16.8%
COc1ccccc1/C=C/C=N/n1c(-c2ccco2)n[nH]c1=S	-9.6%
CC(NC(=O)Cc1ccc(-c2ccccc2)cc1)c1ccccc1 (stereo not drawn)	?
O=C([C@@H]1CCCN1C(=O)c1cccs1)N1CCN(S(=O)(=O)c2cccc(F)c2)CC1	-1.8%
Cn1cc(/C=C2\SC(=S)N(NC(=O)c3ccccc3Cl)C2=O)c2ccccc21	-7.2%

Going on with the list.
SMILES	VDR inhibitor
CC1=NN(C(N)=S)C(=O)C1N=Nc1ccc(Br)cc1 (stereo not drawn)	-7.5%
COC(=O)c1ccc(Nc2ncnc3c2cnn3-c2ccccc2)cc1	6.4%
CCCCC(C(=O)NC(C)(C)C)N(Cc1ccccc1)C(=O)c1snc(C(N)=O)c1N (stereo not drawn)	-12.0%
O=S(=O)(c1ccccc1)N1CCN(Cc2cccc(Cl)c2)CC1	3.3%
COC(=O)c1cccc([N+](=O)[O-])c1CN1CCCC(C(N)=O)C1 (stereo not drawn)	5.9%
CC1CC(C)CN(c2nc3c(c(=O)n(C)c(=O)n3C)n2C)C1 (stereo not drawn)	19.5%
CC(C)C1Cc2ccccc2-c2[nH]c(=S)[nH]c(=O)c21 (stereo not drawn)	4.4%
CNC(=S)N(CCc1c(C)[nH]c2ccc(C)cc12)Cc1cccs1	-9.1%
COc1ccc(CNC[C@H]2O[C@@H](n3ccc(=O)[nH]c3=O)[C@H](O)[C@@H]2O)cc1OC	-17.9%
Cc1ccc(C(=O)N2CC=C(c3ccccc3)CC2)o1	6.6%
Cc1cc2nc(-c3ccc(SCc4ccccn4)nc3)[nH]c2cc1C	0.8%
CCn1cc([N+](=O)[O-])c(C(=O)N2CCN(C(=O)c3ccco3)CC2)n1	3.1%
Cc1c(OC(C)C(=O)NCCCN2CCOCC2)ccc2c1oc(=O)c1ccccc12 (stereo not drawn)	-14.9%
CCCn1c(=O)c2sccc2n2c(CCCC(=O)Nc3cccc(CC)c3)nnc12	6.7%
O=C(Nc1ccccc1C(=O)N1CCN(c2ccccc2)CC1)c1ccco1	14.9%
Cc1ccc(C(OCC(O)CN2CCCCC2)c2ccccc2)cc1 (stereo not drawn)	6.6%
O=C(CSc1nnc(-c2ccccn2)n1Cc1ccccc1)Nc1ccc2c(c1)OCO2	-8.3%
COc1ccc(NS(=O)(=O)c2ccc3oc(SCC(N)=O)nc3c2)cc1	15.6%
CCOC(=O)c1ccc(N2C(=O)[C@@H](c3ccccc3)[C@H]2c2ccccc2)cc1	0.5%
COc1ccc(N(C(=O)C(C)C)S(=O)(=O)c2ccc(Cl)cc2)cc1	14.7%
Cc1ccc(CNC(=O)C2CCCN(C(=O)Nc3ccc(F)cc3)C2)cc1 (stereo not drawn)	6.0%
COc1cccc([C@@H]2Oc3ccc(Br)cc3C(=O)[C@H]2OC(=O)N[C@H]2CCCc3ccccc32)c1	5.3%
O=C(NN1C(=O)C2C3c4ccccc4C(c4ccccc43)C2C1=O)c1ccccc1 (stereo not drawn)	-19.0%
CC(=O)Nc1ccc(NC(=O)COC(=O)C2c3ccccc3Oc3ccccc32)cc1	-10.1%
CC(C)C[C@H](NC(=O)c1nc[nH]c1C(=O)N[C@@H](CCCCNC(=O)OC(C)(C)C)C(=O)OC(C)(C)C)C(=O)OCc1ccccc1	3.5%
Cc1ccc(Cl)cc1N1CCN(c2nc3ccccc3c3nc(-c4cccnc4)nn23)CC1	-11.4%
O=C(NNC(=O)c1ccc([N+](=O)[O-])cc1Cl)c1ccncc1	-9.9%
CCn1c(SCC(=O)Nc2ccc3c(c2)OCO3)nc2c1c(=O)n(C)c(=O)n2C	-0.1%
O=C(CN(c1ccc2c(c1)OCCO2)S(=O)(=O)c1ccccc1)Nc1ccc2c(c1)OCO2	7.4%
Cc1c(C(c2cccc(Br)c2)c2c(C)n(C)n(-c3ccccc3)c2=O)c(=O)n(-c2ccccc2)n1C	13.6%
COc1cc(SC)ccc1C(=O)OCC(=O)NCCNC(=O)COC(=O)c1ccc(SC)cc1OC	-12.0%
N=c1n(CCO)c2ccccc2n1Cc1ccccc1F	52.7%[activator]
Cc1cccc(NC(=O)NCC(c2ccco2)N2CCCCC2)c1 (stereo not drawn)	6.4%
CCOC(=O)c1cnn(-c2cc(Oc3cccc(C)c3)ncn2)c1N	-0.7%
Cc1nn(Cc2ccccc2)c(C)c1NC(=O)c1cc(-c2ccc3c(c2)OCO3)on1	9.1%
Cc1cccc(C)c1OCC(=O)Nn1c(C)nc2ccccc2c1=O	15.3%
COc1ccc2[nH]c3c(c2c1)CCN1C(=O)C(CC(=O)NCCN2CCOCC2)C[C@H](C(=O)N2CCOCC2)[C@@]31CCC1CCCC1 (stereo partly drawn)	4.2%
CC(=O)Nc1ccc(SC(C)C(=O)NC2CCCC2)cc1 (stereo not drawn)	-9.2%
CCOc1ccc(-c2cccc(NC(=O)COc3ccc(Cl)cc3)c2)nn1	-5.5%
Cc1cc(C)n2nc(SC3CCCCN(C(=O)c4ccc(F)cc4)C3=O)nc2n1 (stereo not drawn)	-3.4%

An excerpt of these results, with each value named.
> Cc1cccc(C)c1OCC(=O)Nn1c(C)nc2ccccc2c1=O
  VDR inhibitor: 15.3%
> COc1ccc2[nH]c3c(c2c1)CCN1C(=O)C(CC(=O)NCCN2CCOCC2)C[C@H](C(=O)N2CCOCC2)[C@@]31CCC1CCCC1 (stereo partly drawn)
  VDR inhibitor: 4.2%
> CC(=O)Nc1ccc(SC(C)C(=O)NC2CCCC2)cc1 (stereo not drawn)
  VDR inhibitor: -9.2%
> CCOc1ccc(-c2cccc(NC(=O)COc3ccc(Cl)cc3)c2)nn1
  VDR inhibitor: -5.5%

The listing continues.
SMILES	VDR inhibitor
COc1cc(OC)c(S(=O)(=O)N2CCOCC2)cc1S(=O)(=O)N1CCOCC1	14.5%
CCCN1C(=O)/C(=C/c2nc3ccccc3c(=O)[nH]2)c2cc(C)ccc21	-26.6%
CCOc1ccc(NS(=O)(=O)c2ccc(C(=O)N(C)CCc3ccc(OC)c(OC)c3)cc2)cc1	-10.2%
C=C(C)Cn1c(SCC)nc2ccccc2c1=O	8.3%&0.6%
Cn1cccc1C(=O)N1CCC2(CC1)CN(C(c1ccccc1)c1ccccc1)C2	-6.3%
CCOc1ccc(-n2cc(-c3ccccc3)c3c(Nc4cccc(F)c4)ncnc32)cc1	21.9%
COc1ccccc1CNC(=O)C1CC2Cn3c(nc4cc(C)c(C)cc43)C2N1C (stereo not drawn)	2.2%

Only part of the results is shown, so the mix of outcomes need not match the whole.
